Bioassay records as filed in PubChem.
PABP FP inh = PABP poly(A) RNA binding inhibitors, primary screen, biochemical, fluorescence polarization, uHTS; hit rate 1% among 290,000; AID 2014, 2009; Polyadenylate-binding protein 1 (Homo sapiens), P11940; inhibition, % at 35 µM;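 active = 50% or more with normal probe brightness, or confirmed in later tests; inconclusive = above 50% with abnormal brightness, or retests that disagree; inactive = below 50% or failed in later tests; about a fifth of its hits are not listed in these tables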;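 note: calls also rest on retests at 20 µM and on dose response follow-up; controls were probe without protein and protein plus probe with vehicle; some compounds called inactive have numbers as strong as hits; many hits fall short of the cut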
Target sequence (P11940 whole entry, looked up): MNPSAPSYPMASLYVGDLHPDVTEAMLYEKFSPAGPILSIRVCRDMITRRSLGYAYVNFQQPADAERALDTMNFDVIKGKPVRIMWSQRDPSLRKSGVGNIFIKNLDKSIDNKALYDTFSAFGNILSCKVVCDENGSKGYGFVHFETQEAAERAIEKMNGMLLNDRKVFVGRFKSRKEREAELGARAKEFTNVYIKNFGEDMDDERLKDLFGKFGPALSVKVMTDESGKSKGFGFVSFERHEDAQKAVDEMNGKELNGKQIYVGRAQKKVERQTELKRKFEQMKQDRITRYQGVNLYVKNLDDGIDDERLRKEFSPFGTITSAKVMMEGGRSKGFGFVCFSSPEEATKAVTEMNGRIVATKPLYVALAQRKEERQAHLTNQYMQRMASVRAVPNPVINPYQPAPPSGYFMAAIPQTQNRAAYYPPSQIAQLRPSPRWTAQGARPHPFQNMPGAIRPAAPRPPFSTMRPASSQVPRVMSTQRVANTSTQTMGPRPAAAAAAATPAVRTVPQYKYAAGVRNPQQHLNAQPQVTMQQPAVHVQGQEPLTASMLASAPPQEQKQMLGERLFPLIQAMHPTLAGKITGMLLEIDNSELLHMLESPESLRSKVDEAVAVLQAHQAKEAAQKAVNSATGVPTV
MT1-MMP act inh = blockers of MT1-MMP proenzyme processing, primary screen, HT1080 RFP-PRO-GFP cells, GFP/RFP fluorescence | Matrix metalloproteinase-14 (Homo sapiens), P50281 | GFP/RFP ratio fluorescence, overnight; percent of plate control window, DMSO zero | GFP/RFP ratio change, % at 20 µM | hit rate 0.061% among 360,000 | AID 651647, 2012;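 active = GFP/RFP ratio change of at least 30% with cell ATP level not reduced by more than half and red fluorescence within 50% of control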; note: strong numbers were not always called active
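Compound: 20 µM single dose, 1% DMSO / System: HT1080 RFP-PRO-GFP cells / Controls: DMSO and RFP-L50D-GFP cell wells / Read-out basis: GFP/RFP fluorescence ratio / Schedule: overnight compound exposure at 37 °C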
Rce1 inhib = yeast Rce1p protease inhibitors, primary screen, biochemical, fluorescence, cell-free homogeneous; calls only; yeast membranes, quenched prenylated peptide cleavage fluorescence; hit rate 0.27% among 290,000; AID 2563, 2010; CAAX prenyl protease 2 (Saccharomyces cerevisiae (strain ATCC 204508 / S288c)), Q03530;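 active = fall in fluorescence gain of 50% or more versus controls, with final raw signal at or below 3038400; inconclusive = same 50% fall but final raw signal above 3038400; inactive = fall in fluorescence gain under 50%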;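 note: plate controls were neutral control wells for no effect and wells lacking membranes for full effect; tested at 10 µM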
CSC inhib = cancer stem cell viability inhibitors, primary screen, luminescence. inhibition, % at 7.5 µM. cancer stem cell-like cells viability. AID 2717, 2010. hit rate 1.1% among 300,000;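 active = mean at 75% or more and at least half the replicates too; inconclusive = mean and replicates disagree; tested in HMLE shEcad cells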;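 note: 0% = median of negative and 100% = median of positive control wells; the first replicate is given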
Yeast UUG start = modulators of yeast start codon fidelity, primary screen, whole organism, S. cerevisiae, single point, plate reader | S. cerevisiae UUG-firefly luciferase reporter, luminescence/redox ratio | activity score, % at 18.7 µM | hit rate 0.13% among 350,000;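 active = replicate mean at a twofold rise or more, about +100% in these data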;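 note: firefly luciferase made from a UUG start codon reports start codon fidelity; reporter light over untreated wells divided by growth signal over untreated wells; some hits fall short of that in this replicate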
eIF4H inh = human eIF4H binding inhibitors, primary screen, translation initiation inhibitor project, biochemical, uHTS, fluorescence polarization; eIF4H fluorescence polarization binding assay; inhibition, % at 35 µM; hit rate 0.94% among 290,000; AID 2012, 2009;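 active = 50% or more with normal probe brightness, or confirmed in later tests; inconclusive = above 50% with abnormal brightness, or retests that disagree; inactive = below 50% or failed in later tests; about a fifth of its hits are not listed in these tables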;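 note: calls also rest on retests at 20 µM and on dose response follow-up; 0% = protein and probe with vehicle and 100% = probe without protein; strong numbers were not always called active; many hits fall short of the cut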
HIV Env fusion = inhibitors of HIV-1 Env-driven cell-cell fusion, primary screen, HeLa-JRFL effector, CEM21 target cells, luciferase; inhibition, % at 12.3 µM; hit rate 1.1% among 360,000;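 active = mean replicate inhibition score of at least 50 and every replicate individually at or above 50; inconclusive = only one of the two criteria met; inactive = mean below 50 and not all replicates reaching 50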;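 note: 0% = plate neutral controls and 100% = maraviroc near 300 nM; one replicate is shown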
eIF4H inh retest = also measured in eIF4H inh; calls as there; inhibition, %; compound at 20 µM; confirmation average;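 mean of two retest wells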
PABP FP inh retest = recorded beside PABP FP inh, whose call it bears; inhibition, %; compound at 20 µM; confirmation repeats;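 mean of two retest wells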
MT1-MMP act inh RFP = further read-out of MT1-MMP act inh, marked with its call; RFP signal change, %; measured here: RFP expression control read;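 0 = vehicle wells; hits needed this value within 50% of zero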
* marks the source's active call; other numbers are inactive results; i = inactive; ? = inconclusive; nt = not tested or not shown; & = joins results of further samples; [ ] = remark or other dose. Outcome played no part in choosing rows; about 2.9% have a hit in one of these screens.

SMILES	PABP FP inh	MT1-MMP act inh	MT1-MMP act inh RFP	Rce1 inhib	CSC inhib	Yeast UUG start	eIF4H inh	HIV Env fusion	others
CCC(=O)NCCNc1nc2cc(C)cc(C)c2cc1C#N	4	0	-4	i	10	nt	-4	4
COc1cc(OC)cc(C(=O)Nc2cccc(NC(=O)c3cccs3)c2)c1	nt	-2	4	nt	nt	124*	nt	13
CC(=O)Nc1cccc(-c2ccnc3c2CC(C(=O)NC(C)C)O3)c1 (stereo unspecified)	nt	3	6	nt	nt	-6	nt	-17
Oc1ccc(Cl)cc1-c1cc(C(F)(F)C(F)F)nc(-c2ccccc2)n1	6	-7	-10	i	30	nt	1	67*
O=C(OC(C(=O)NC1CCCC1)c1cccnc1)C1=Cc2ccccc2OC1 (stereo unspecified)	-4	2	4	i	6	-17	-5	-87
C[C@@H]1CCCCO[C@H](CN(C)C(=O)Nc2ccc(F)cc2)[C@@H](C)CN([C@H](C)CO)C(=O)c2cc(NC(=O)c3ccccc3)ccc2O1	nt	4	-1	nt	nt	16&-6	nt	-11
CCOP(=O)(OCC)c1nc(-c2ccc(C)cc2)oc1NCc1ccccc1	-9	-6	-8	i	-6	nt	-2	-4
CC(Sc1ccc(Cl)cc1)C(=O)NCC(c1ccco1)N1CCCCC1 (stereo unspecified)	nt	3	2	i	-13	3	nt	-35
COc1ccc(S(=O)(=O)N2CCN(CC(=O)Nc3cccc(OC)c3)CC2)cc1	0	2	4	i	-13	0	-11	-4
Clc1cccc(CN2COc3c(cc(Cl)c4cccnc34)C2)c1	30	nt	nt	nt	118*	nt	1	nt
O=C(Nc1nnc(-c2ccc(Cl)cc2)o1)C1=COCCO1	-8	4	6	i	3	-10	3	-1
CCOc1ccc(Cl)cc1CNCCNCCO	3	-1	-3	i	-23	1	9	-5
COc1ccccc1NC(=O)CCC(=O)OCc1cccc([N+](=O)[O-])c1	4	-1	1	i	-12	nt	8	-6
O=C(NNS(=O)(=O)c1ccccc1C(F)(F)F)c1cc2ncc(C(F)(F)F)cc2s1	4	nt	nt	i	5	4	2	9
O=C(NCCN1CCOCC1)c1ccc(NS(=O)(=O)c2ccccc2)cc1	-14	0	3	i	-3	-14	-10	-32
O=C1NNC(c2ccccc2)=N/C1=C\c1ccccc1	2	4	7	i	1	nt	-4	-10
Cc1ccc(-n2nnnc2SCC#N)cc1	3	-6	-4	i	-6	-4	-2	-4
COc1ccc(OCCC(=O)OCC(=O)Nc2ccc(S(=O)(=O)N3CCOCC3)cc2)cc1	-3	-1	-1	i	-11	nt	-6	-10
CC(=O)c1cccc(NC(=O)N2CCCC2C(=O)NCc2ccc3c(c2)OCO3)c1 (stereo unspecified)	8	-3	-5	i	-18	5	-2	-2
CC(c1ccco1)N(C(=O)c1ccc(Cl)s1)c1ccccn1 (stereo unspecified)	4	nt	nt	i	-25	nt	14	nt
N#Cc1ccccc1OCC(=O)NNC(=O)c1ccncc1	nt	-2	2	nt	-20	-17	nt	nt
O=C(NC1CCCCC1)NC1CCN(S(=O)(=O)Cc2ccccc2)CC1	-3	-9	1	i	-22	6	-6	-4
CS/C(=N\S(=O)(=O)c1cccs1)Nc1ccc(N2CCOCC2)cc1	1	4&7	-3&-2	i	7	-13&-43	-1	-12
Cc1cc(C(=O)COC(=O)C2=COCCO2)c(C)n1-c1cccc(F)c1	nt	3	2	i	-10	nt	nt	-40
CC1=C(C(=O)Nc2ccc(C(=O)N3CCN(c4ccccc4F)CC3)cc2)SCCO1	2	-1	2	i	5	-6	4	6
O=C(CN1CCN(C(C(=O)Nc2ccc(Cl)cc2C(F)(F)F)c2ccccc2)CC1)NC1CC1 (stereo unspecified)	nt	-2	-5	nt	nt	-10	nt	6
Cc1c(CC(=O)O)c(=O)oc2c(C)c3occ(-c4ccc(F)cc4)c3cc12	20	2	3	i	-3	4	48	2
CN(C(=O)COC(=O)c1ccc2ccccc2n1)C1CCCCC1	nt	-2	1	nt	-16	-11	nt	31
Cc1ccsc1C(=O)C1CCCN(Cc2cn(C)nc2-c2ccccc2)C1 (stereo unspecified)	0	0	0	i	-8	nt	2	22
Cc1noc(C(=O)Nc2cc(Cl)ccc2O)c1Cl	-3	-13	0	i	4	-10	4	-7
Cc1cc2[nH]c(=O)c(=O)[nH]c2cc1S(=O)(=O)N1CCN(c2cccc(C(F)(F)F)c2)CC1	-7	5	-3	i	-4	-25	18	4
OC(c1ccc(-c2ccccc2)cc1)c1ncc(-c2ccc(C(F)(F)F)cc2)[nH]1 (stereo unspecified)	nt	1	2	nt	nt	-18	nt	4
CCC(C)(C)N1CC(=O)N(Cc2ccccc2)C(c2ccc(OC)cc2)C1=O (stereo unspecified)	-5	2	1	i	-5	-5	-4	nt
Cc1nc2ccccc2c2oc(C(=O)NCCN3CCN(C)CC3)cc12	10	-4	-3	i	-9	9	-6	-21
COc1ccc(-c2noc(CCCc3ccccc3)n2)cc1OC	5	6	0	i	15	-4	-8	-34
COc1ccccc1OCCOc1ccc(/C=C2\C(=N)N3N=C(S(C)(=O)=O)SC3=NC2=O)cc1	22	-2	-1	i	11	-11	34	-2
O=C(COC(=O)C1CCN(C(=O)c2ccc(Cl)cc2)CC1)c1ccco1	3	3	1	i	5	-12	11	-68
CC1CCN(C(=O)c2ccc(CNc3c(N4CCCC4)c(=O)c3=O)cc2)CC1	2	6	0	i	6	-4	0	10
CCN(CC(=O)NCc1ccc(Cl)cc1)C(=O)CCC(=O)c1ccc(C)cc1	nt	0	-1	i	-1	nt	nt	-14
Cc1cc(C)n2cc(CSCc3ccccc3)nc2n1	6	2	6	i	4	-13	1	-10
O=C(Nc1ccc(F)cc1)N(CCCN1CCOCC1)Cc1cc2cc3c(cc2[nH]c1=O)OCCO3	13	3	8	i	-3	8	-6	nt
NS(=O)(=O)c1ccc(NC(=O)CCC(=O)c2cccs2)cc1	8	0	-2	i	1	-10	-3	-18
O=C(OCCc1cc2ccccc2c(=O)o1)N1CCOCC1	nt	-2	4	nt	21	-3	nt	-15
CCOC(=O)N1CCN(C(=O)CS(=O)(=O)Cc2nc(-c3ccccc3C)oc2C)CC1	-3	2	-4	i	-9	-2	-2	35
CCCCCCN1C[C@@H](O)[C@H](n2cc(C3CC3)nn2)C[C@@H]1c1ccc(C)cc1	nt	0	0	nt	nt	-27	nt	-5
Nc1ccc(O)c([N+](=O)[O-])c1	nt	5	4	nt	3	-14	nt	nt
O=C(NC1CCCCC1)C(c1ccc(Cl)cc1)N(C(=O)c1cnccn1)c1ccc2c(c1)OCO2 (stereo unspecified)	7	4	-1	i	-19	nt	2	83*
O=C(N/N=C/c1cc(Br)cc(Br)c1O)c1cccc(N2CCCC2=O)c1	-2	-4	1	i	11	-22	8	8
O=C(NCc1ccco1)c1cc(=O)c2ccccc2o1	22	1	5	i	nt	nt	7	-6
O=C(Cn1ccc([N+](=O)[O-])n1)NCc1cccnc1	0	0	5	i	-6	-8	9	-1
CCNc1nc(N)nc(Oc2ccc(OCCOc3ccc(Cl)cc3Cl)nn2)n1	4	10	-3	i	21	10	-5	16
O=C(COC(=O)/C=C/c1ccccc1[N+](=O)[O-])NCC(F)(F)F	-1	-3	1	i	-15	-10	1	-4
CCN(CCCc1ccccc1)CCCc1ccccc1	-2	3	0	i	nt	-16	19	-28
C=CCOc1ccc(Br)cc1/C=C1/SC(=Nc2ccc(C(=O)O)cc2)NC1=O	15	-7	2	nt	nt	nt	79	4	eIF4H inh retest=2;PABP FP inh retest=6
Cc1csc(NC(=O)c2cc(C)oc2C)n1	-1	-7	-3	i	2	-12	3	nt
COc1ccc(Cl)cc1-c1cc(C(=O)NCc2ccccc2)[nH]n1	nt	-1	-7	nt	nt	-4	nt	2
COc1ccccc1CC(NC(C)=O)C(=O)NC1CCN(C(=O)Nc2cccc(F)c2)CC1 (stereo unspecified)	3	-1	1	i	nt	-10	-4	-22
CCOc1cc(CNC(C)(C)CO)cc(Br)c1OCc1ccc(Cl)cc1Cl	-5	-8	-5	i	nt	1	-6	-46
Cc1c(Cl)cccc1NC(=O)NCc1ccncc1	-4	4	4	i	-18	-6	1	-99
Cc1ccc(-c2ccc(=O)n(Cc3cccc(Br)c3)n2)cc1	-2	3	1	i	28	-7	-6	19

Continuation:
SMILES	PABP FP inh	MT1-MMP act inh	MT1-MMP act inh RFP	Rce1 inhib	CSC inhib	Yeast UUG start	eIF4H inh	HIV Env fusion	others
CCN(C(=O)COC(=O)/C=C/c1cnc2ccccc2n1)c1ccccc1	3	-9	-8	nt	34	nt	3	29
CCCC(=O)Nc1ccc(-c2nc3cc(C)c(C)cc3o2)cc1	-6	12	1	i	28	-21	-6	nt
Cc1ccc[n+](C(C)C(=O)c2ccc(-c3ccccc3)cc2)c1 (stereo unspecified)	-9	nt	nt	i	26	-25	-7	7
COc1ccccc1Cc1c(C2CCCCC2)nc2ccc(Br)cn12	nt	-4	-5	nt	nt	14	nt	9
CCOc1ccc(C2C(C(=O)C3CC3)N3C=C(C#N)C=CC3C2(C#N)C#N)cc1 (stereo unspecified)	?	nt	nt	i	1	nt	?	-59
CCN(C(=O)CSc1nnc(-c2ccncc2)n1Cc1ccccc1)C1CCS(=O)(=O)C1 (stereo unspecified)	8	0	7	i	-10	0	-11	3
COc1ccc(-c2nnc(SC(C)C(=O)Nc3nccs3)n2Cc2ccccc2)cc1OC (stereo unspecified)	-1	1	-3	i	nt	14	-4	26
O=c1oc2cc(OCCO)ccc2c2c1CCCC2	-6	-1	1	i	-9	-7	-11	14
COc1cc2c(cc1OC)CN(C(=O)c1cc(C3CC3)nn1-c1ccccc1)CC2	nt	0	2	nt	8	-4	nt	6
C[C@H](CO)N1C[C@H](C)[C@@H](CN(C)Cc2ccc(-c3ccccc3)cc2)Oc2ccc(NC(=O)Cn3cnnn3)cc2C1=O	nt	6	8	nt	nt	6&2	nt	-1[16.7 µM]
CC(=O)N1N=C(c2cccs2)CC1c1cccs1 (stereo unspecified)	1	1	0	i	5	nt	0	-15
CCc1nc2ccccc2c(C(=O)OCC(=O)NCCCN2CCCC2=O)c1C	-4	-3	0	i	-1	-10	-6	-30
CCc1ccc(NC(=O)C/C(C)=N/NC(=O)COc2ccccc2C)cc1	-5	-2	2	i	nt	-21	0	2
Cc1ccc(C(=O)NC2CCN(C(=O)Nc3ccccc3)CC2)cc1	-4	-1	1	i	-8	-14	-2	6
O=C(C1CCCCC1)N1C[C@H](n2cc(C3CC3)nn2)[C@@H](O)C[C@@H]1c1ccc(Cl)cc1	nt	2	2	nt	nt	-7	nt	-8
COC(OC)c1ccnc(-c2ccc(OC(=O)c3cccs3)cc2)n1	10	3	4	i	-1	-4	6	1
O=C(c1ccc(S(=O)(=O)c2ccccc2Cl)c([N+](=O)[O-])c1)N1CCCCCC1	17	0	-18	i	21	nt	4	36
